Source: PubChem
HSV augment: increases HSV replication in cells. HSV replication augmentation in cells, fold increase. maximum fold increase. 0.005% of 220,000 active;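 active = peak rise of 1.5-fold or more in the series; inconclusive = self-fluorescent or not available for retest; tested in PC3 cells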;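 also: first round at 10 µM; read as green reporter fluorescence; hits show the peak of a series up to 25 µM; 1 = signal of infected wells without compound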
GALR2 ag: GALR2 (human) receptor agonism | O43603 | GALR2-expressing cells, agonist activation read-out | activation, %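 (tested at 5 µM)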 | 0.48% of 140,000 active;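 active = above mean plus 3 SD of all compounds, about 5% in these data, not always enough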;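 also: 0% = vehicle buffer wells and 100% = reference agonist at full effect; tested in CHO reporter cells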
Target sequence (O43603 whole entry, looked up): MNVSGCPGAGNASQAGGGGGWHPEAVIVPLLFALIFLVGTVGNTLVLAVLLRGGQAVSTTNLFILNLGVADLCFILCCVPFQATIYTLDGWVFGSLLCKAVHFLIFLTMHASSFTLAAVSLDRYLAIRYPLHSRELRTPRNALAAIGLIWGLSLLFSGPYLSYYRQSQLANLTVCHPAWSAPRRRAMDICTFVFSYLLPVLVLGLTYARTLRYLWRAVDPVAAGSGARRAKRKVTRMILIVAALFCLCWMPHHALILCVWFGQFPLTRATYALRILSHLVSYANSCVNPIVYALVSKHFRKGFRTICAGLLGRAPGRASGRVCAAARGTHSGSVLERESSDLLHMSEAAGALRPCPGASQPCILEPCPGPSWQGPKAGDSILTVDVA
RGS16-Gao HTS: modulates binding between human RGS16 and Galphao | O15492+P09471 | bead-based flow cytometry RGS16-Galphao binding, fluorescence; actives lie on both sides | binding response (% of control), % at 10 µM | 0.38% of 220,000 active;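 active = below 25% or above 175%, edge rows of some plates excepted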;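 also: Galphao activated by GDP with aluminum fluoride before binding; 100% = wells without compound and 0% = beads without RGS; some results beyond the cut were filed as inactive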
Target sequence (O15492 whole entry, looked up): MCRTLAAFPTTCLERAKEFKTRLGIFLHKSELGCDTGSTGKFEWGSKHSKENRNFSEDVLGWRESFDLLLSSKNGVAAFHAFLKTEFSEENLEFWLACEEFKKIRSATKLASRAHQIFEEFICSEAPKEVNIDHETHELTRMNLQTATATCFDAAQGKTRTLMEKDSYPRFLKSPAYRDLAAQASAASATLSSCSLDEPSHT
Target sequence (P09471 whole entry, looked up): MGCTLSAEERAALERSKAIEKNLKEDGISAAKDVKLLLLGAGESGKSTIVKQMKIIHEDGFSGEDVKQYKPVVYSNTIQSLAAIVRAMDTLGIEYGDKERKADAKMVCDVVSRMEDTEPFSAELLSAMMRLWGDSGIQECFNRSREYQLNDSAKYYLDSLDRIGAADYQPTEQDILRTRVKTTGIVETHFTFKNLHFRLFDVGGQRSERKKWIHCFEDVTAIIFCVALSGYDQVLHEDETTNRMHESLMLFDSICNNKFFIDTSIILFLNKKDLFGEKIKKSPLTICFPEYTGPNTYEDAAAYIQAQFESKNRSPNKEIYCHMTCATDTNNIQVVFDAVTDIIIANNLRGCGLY
INS promoter inh: TRM-6 insulin promoter activity inhibition. 0.9% of 130,000 active. inhibition, % at 2 µM. TRM-6 cells (human fetal islet line), insulin promoter-eGFP reporter, imaging; reporter expression induced with tamoxifen;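 active = inhibition above the mean plus 3 SD, with well images judged a real hit on visual review, cut at about 60% in these data, passing the limit was not always enough; inconclusive = inhibition over the cutoff but images rejected on review; inactive = inhibition not above the cutoff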
PKD1 inh: PKD1 (human) kinase inhibition. Q15139. PKD1 kinase fluorescence polarization assay. inhibition, %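 (about 10 µM by stock and volumes)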. 0.056% of 200,000 active. AID 797;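 active = inhibition of 50% or more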;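 also: controls were vehicle for no effect and a reference inhibitor for full effect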
INS promoter inh cell count: further read-out of INS promoter inh, marked with its call; normalized cell count, %; measured here: cell count, toxicity; reference of the scale not given here;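 cells exposed to compound for 48 h; stained nuclei by imaging scaled within each plate; lower means fewer cells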
HSV augment primary fold: second read-out of HSV augment, no call of its own (marks repeat the call); fold increase; compound at 10 µM; measured here: primary screen fold increase 10 uM; tested in PC3 cells;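 GFP signal in the first replicate; 1 = infected wells without compound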
Starred values were filed as active, the others as inactive; i = inactive; ? = inconclusive; · = not tested or not shown.

SMILES	HSV augment	HSV augment primary fold	GALR2 ag	RGS16-Gao HTS	INS promoter inh	INS promoter inh cell count	PKD1 inh
CCc1ccccc1N(CC(=O)NCc1ccco1)C(=O)c1snc(C(N)=O)c1N	i	1	-2.6	100	-164	138	-4
Cc1cccc(NC(=O)N2CCN(Cc3ccc(Cl)cc3)CC2)c1	i	1.1	·	95	-25	105	-8
CC(c1cccnc1)N(C(=O)Nc1ccccc1)C1CCCCC1 (configuration not stated)	i	1	-2.9	99	·	·	5
COc1cc(C(=O)Nc2cccc(C(C)=O)c2)cc(OC)c1OC	i	0.95	·	103	·	·	-4
CO/N=C/c1ccc(Oc2ccc([N+](=O)[O-])cc2[N+](=O)[O-])c(OC)c1	i	0.71	-1.4	97	23	118	11
O=C(CSc1ccc(-c2ccccc2)nn1)NCc1ccco1	i	0.89	-3.9	95	-444	63	-12
COc1cccc(NC(=O)CSc2nnc(Cn3cnc([N+](=O)[O-])n3)n2C)c1	i	0.95	-1.4	103	33	144	-7
COc1ccc(OC)c(CC(NC(C)=O)C(=O)NC2CCN(c3cc(C)nc4ncnn34)CC2)c1 (configuration not stated)	i	0.91	·	104	·	·	-6
CCN(CC)c1nc(Nc2ccc(Cl)cc2)nc(OCC#N)n1	i	0.8	0.3	99	6	117	-8
CCOC(=O)C(C)Sc1nnc2n1C(C)(C)Cc1ccccc1-2 (configuration not stated)	i	0.68	-0.8	111	·	·	0
CC(=NCCN1CCNCC1)C1=C(O)CC(C)(C)CC1=O	i	0.87	-2.6	102	·	·	0
COc1c(Cl)ccc(Cl)c1C(=O)NC(=S)N1CCOCC1	i	1.1	·	103	·	·	6
O=C(CCSc1ccccn1)Nc1ccc(Br)cc1	i	0.94	-1.5	101	-26	130	1
N#Cc1ncc(Cl)c2ccccc12	i	0.94	·	108	·	·	·
Cc1ccc(C(=O)O/N=C(\N)c2nonc2N)cc1	i	1.1	-1.1	99	·	·	1
CCOC(=O)c1ccc(NC(=O)Oc2ccccc2)cc1	i	0.76	-1.5	98	6	120	-1
COc1ccc2[nH]c(=O)c(C(c3nnnn3C3CCCC3)N(C)C3CCCCC3)cc2c1 (configuration not stated)	i	0.81	-0.9	123	41	160	-13
Cc1ccccc1-n1c([C@@H]2C[C@H]2c2ccccc2)n[nH]c1=S	i	1.1	·	103	·	·	·
O=C(COC(=O)c1c2c(nc3ccccc13)CCCC2)Nc1ccc2c(c1)OCO2	i	0.68	0.3	93	·	·	-14
Cc1cc2oc(C(=O)Nc3c(C)n(C)n(-c4ccccc4)c3=O)c(C)c2cc1Cl	i	0.76	-0.9	106	·	·	-16
CCn1cc(C(=O)O)c(=O)c2cc(F)c(N3CCN(C(=S)NC(=O)c4cccc(C)c4)CC3)cc21	i	0.82	·	97	·	·	·
CC1CCc2sc(C(=O)NN)cc2C1 (configuration not stated)	i	0.87	·	99	-80	119	1
Cc1ccc(Nc2nc(NCC3CCCO3)nc(N)c2[N+](=O)[O-])cc1 (configuration not stated)	i	0.92	-0.1	99	·	·	3
COC(=O)c1sc2nc(SCc3cccc(Cl)c3)n(N)c(=O)c2c1C	i	0.99	-0.9	82	-17	59	-9
CC(=O)Nc1ccc(N=Nc2ccc(O)cc2)cc1	i	0.97	-1.4	112	21	52	-16
CN1/C(=C/C(=O)c2cccs2)Sc2ccccc21	i	0.95	3.5	96	69	87	3
COc1ccc(OCC(=O)Nc2ccc(N3CCOCC3)c(Cl)c2)cc1	i	0.96	-2.5	92	-25	95	3
Cc1ccc(NC(=O)Nc2ccc(F)cc2)nc1	i	0.82	-2.3	101	33	103	0
O=C(Nc1ccc2c(c1)nc1n2CCOC1)c1ccco1	i	0.97	-1.2	101	·	·	6
Cc1nnsc1SCCNC(=O)c1ccc(F)cc1	i	0.92	-1.9	104	-7	148	10
Cc1ccc(S(=O)(=O)[N-]c2nc3ccccc3nc2-n2cc[n+](CCC(C)C)c2)cc1	i	0.75	0.0	99	25	195	-1
COCCn1c(=O)[nH]c(=O)c2c1nc(-c1cc(Br)c3c(c1)OCO3)n2Cc1ccccc1	i	1	·	100	·	·	-4
O=C(O)CSCCc1ccccn1	i	0.94	-1.4	101	·	·	-3
O=C(CCCSc1nc2ccccc2[nH]1)NCc1ccccc1	i	0.99	-0.9	101	·	·	-2
O=C1/C(=C\c2ccc(O)cc2)SC(=S)N1/N=C/c1ccc(O)cc1	?	·	·	98	·	·	·
O=C(c1cccnc1)N1CCN(Cc2ccccc2Br)CC1	i	0.9	-2.4	101	50	119	0
Cc1cccn2c(=O)c3cc(C#N)c(=N)n(CCCN4CCOCC4)c3nc12	i	1	-0.6	·	24	64	-5
CC(C)(C)c1ccc(C(=O)NCC(=O)OCc2ccc([N+](=O)[O-])cc2)cc1	i	1.1	-1.1	105	·	·	-6
Cc1cccn2c(CN(C)CC3Cc4ccccc4O3)c(C(=O)N3CCCCC3)nc12 (configuration not stated)	i	1	·	107	·	·	7
NS(=O)(=O)c1ccc(NN=C2CCN(Cc3ccccc3)CC2)c([N+](=O)[O-])c1	i	1	·	103	·	·	0
Cc1ccc(Nc2nc(Cl)nc(N(C)C#N)n2)cc1	i	0.82	-0.4	101	-57	84	-5
N#Cc1cc2c(=O)n3ccccc3nc2n(Cc2cccnc2)c1=N	·	·	2.0	·	-14	54	-2
O=C(Cn1cnc2c(nnn2-c2ccc(F)cc2)c1=O)NCc1ccco1	i	1	-1.5	99	-50	76	-6
O=C(CNC(=O)Cc1ccccc1)NCC(=O)OCC(=O)c1ccccc1Cl	i	1.2	-0.2	96	0	60	6
CC(=O)Nc1ccc(NC(=O)COc2ccccc2C(=O)Nc2cccc(Cl)c2Cl)cc1	i	0.94	1.3	92	35	134	-7
CC(C)(C)C(=O)Nc1nc2ccc(S(C)(=O)=O)cc2s1	i	0.97	·	101	-17	140	3
COc1ccc(CNC(=O)C2CCN(c3nc(OC)nc(OC)n3)CC2)cc1	i	1.2	-3.7	101	-13	135	4
CCC(=O)c1ccc(N2CCN(C(=O)c3ccc(Br)cc3)CC2)c(F)c1	i	1.1	-0.4	105	-55	173	-16
N#C/C(=C(/O)c1ccccc1F)c1nc2cc(C(F)(F)F)ccc2s1	i	1.1	·	98	·	·	3
CCOC(=O)c1c(C)[nH]c(C(=O)N2CCCC(C(=O)c3ccccc3OC)C2)c1C (configuration not stated)	i	0.89	·	107	·	·	·

Later entries
SMILES	HSV augment	HSV augment primary fold	GALR2 ag	RGS16-Gao HTS	INS promoter inh	INS promoter inh cell count	PKD1 inh
CCOC(=O)C(C)CC(C)C(=O)N1CCOCCN(C(=O)C(C)CC(C)C(=O)OCC)CCOCC1 (configuration not stated)	i	1.1	-3.1	97	-6	99	-9
O=C(CNCCO)Nc1ccc(F)c(Cl)c1	i	0.92	·	101	·	·	-3
O=C(O)c1cc(-c2ccc(/C=C3\NC(=O)N(c4ccccc4)C3=O)o2)ccc1Cl	i	0.98	·	90	·	·	·
Cc1ccccc1Nc1nnc(SCC(=O)NC2CCCc3ccccc32)s1 (configuration not stated)	i	0.94	-0.2	90	·	·	-1
Cc1ccc(C)n1-n1cnc2sc3c(c2c1=O)CCCCC3	i	0.88	-1.7	106	-139	85	1
C=CCn1c(N)c(C(=O)OC(C)(C)C)c2nc3ccccc3nc21	·	·	1.5	106	3	67	0
CCOC(=O)c1ccc(NC(=O)CSc2nnc(CCc3ccc(C)o3)n2-c2ccccc2)cc1	i	0.87	-0.6	93	41	115	-2
COc1cccc(NC(C)(C)c2nnnn2-c2c(C)cccc2C)c1	i	1.2	·	91	·	·	·
C=C(C)[C@@H]1CCC2(C(=O)O)CC[C@]3(C)[C@H](CC[C@@H]4[C@@]5(C)CCC(=O)C(C)(C)[C@@H]5CC[C@]43C)[C@@H]12 (some centres not stated)	i	0.91	-0.2	99	-5	128	-7
COc1ccccc1NC(=S)N1CC(C)OC(C)C1 (configuration not stated)	i	1.3	·	106	-53	98	6
Cc1ccc(C(C)C)c(OCc2ccc(-c3nnco3)cc2)c1	i	0.9	-3.3	100	·	·	-15
C/C=C/c1ccc(OCC(O)CN2CCCCC2CC)c(OC)c1 (configuration not stated)	i	0.86	·	109	14	116	-9
O=C(N=Nc1c(O)[nH]c2ccc(F)cc12)C1COc2ccccc2O1 (configuration not stated)	i	0.97	·	97	·	·	·
CCOC(=O)c1c(C)nc(C)c(C(=O)OCC)c1-c1ccco1	i	1	·	88	·	·	·
COC(=O)c1cc(Cl)c(NC(=O)C(C)C)cc1OC	i	0.97	·	101	-42	146	-3
O=C1C(=O)N(O)C2CCCCC2N1O (configuration not stated)	i	1.2	0.2	100	·	·	1
COc1ccccc1CNC(=O)CSc1ccc(-c2cccs2)nn1	·	·	·	109	-29	89	-12
Cc1nc2c(-c3ccc(F)cc3)c(C)nn2c(C)c1CCC(=O)Nc1ccccc1F	i	0.76	·	102	·	·	·
Cc1ncc(C[n+]2csc(CCOC(=O)CC34CC5CC(CC(C5)C3)C4)c2C)c(N)n1	i	1.1	0.0	107	-37	100	-5
COc1ccccc1C(=O)/C=C/c1ccc(N2CCCCC2)c([N+](=O)[O-])c1	i	0.78	-0.4	163	59	108	6
Cc1nc2ccccn2c1C(=O)OCC#N	i	0.95	·	101	10	111	-5
O=C(c1ccc(C(F)(F)F)cc1)n1ccc(-c2cccs2)n1	i	0.89	·	101	·	·	·
CCOc1ccc(N(CC(=O)NC2CCCC2)S(=O)(=O)c2c(C)noc2C)cc1	i	0.96	-3.0	97	·	·	-9
O=C(NCCc1ccccc1)c1cnn2c(C(F)F)cc(C3CC3)nc12	i	0.71	-2.6	142	31	185	13
C=CCc1ccccc1OCCCCN1CCCC1	i	0.85	-0.9	133	·	·	-4
Cc1ccc(F)c([C@H]2C3C=CCC(c4ccccc4)C3C(=O)N2Cc2ccccc2)c1 (some centres not stated)	i	0.66	·	95	·	·	·
Cn1c(Cn2c(=O)sc3ccccc32)nnc1SCC(=O)NCc1ccc(F)cc1	i	0.9	-0.9	112	·	·	-8
O=C(Cc1c(F)cccc1Cl)N1CCN(C(=O)c2ccco2)CC1	i	0.96	-0.9	105	7	66	-5
N#CCSc1nc2ccccc2c(=O)n1CCC(=O)NCCc1ccccc1	i	0.82	-0.3	90	-17	83	-3
COc1cc(Cl)c(C)cc1NC(=O)COc1cc(C)nc(C(C)C)n1	i	0.85	-3.0	107	7	94	0

Next part; the last 7 above are carried over.
SMILES	HSV augment	HSV augment primary fold	GALR2 ag	RGS16-Gao HTS	INS promoter inh	INS promoter inh cell count	PKD1 inh
O=C(NCCc1ccccc1)c1cnn2c(C(F)F)cc(C3CC3)nc12	i	0.71	-2.6	142	31	185	13
C=CCc1ccccc1OCCCCN1CCCC1	i	0.85	-0.9	133	·	·	-4
Cc1ccc(F)c([C@H]2C3C=CCC(c4ccccc4)C3C(=O)N2Cc2ccccc2)c1 (some centres not stated)	i	0.66	·	95	·	·	·
Cn1c(Cn2c(=O)sc3ccccc32)nnc1SCC(=O)NCc1ccc(F)cc1	i	0.9	-0.9	112	·	·	-8
O=C(Cc1c(F)cccc1Cl)N1CCN(C(=O)c2ccco2)CC1	i	0.96	-0.9	105	7	66	-5
N#CCSc1nc2ccccc2c(=O)n1CCC(=O)NCCc1ccccc1	i	0.82	-0.3	90	-17	83	-3
COc1cc(Cl)c(C)cc1NC(=O)COc1cc(C)nc(C(C)C)n1	i	0.85	-3.0	107	7	94	0
CCC(C)(C(=O)NC1CCCCC1)N(C(=O)C1CCC(=O)N1)c1ccccc1 (configuration not stated)	i	0.88	-2.2	98	-23	117	4
O=[N+]([O-])c1ccc(-c2csc(Nc3ccccc3)[n+]2Cc2ccccc2)cc1	i	1.1	-3.6	103	·	·	3
CCOc1ccc(N(C(=O)c2cc3ccccc3oc2=O)C2C=CS(=O)(=O)C2)cc1 (configuration not stated)	i	0.95	·	120	8	117	-2
Oc1ccc(Cl)cc1C=Nc1ccc2c3c(cccc13)CC2	i	1	-0.4	109	-148	104	-6
O=C1C2C3C=CC(C4CC34)C2C(=O)N1Cc1ccco1 (configuration not stated)	i	1	-1.3	104	30	123	-3
COc1cc(NC(=O)c2cc3nc(C)cc(C)n3n2)c(OC)cc1Cl	i	0.81	-1.1	100	·	·	-12
COc1ccc(NC2=Nc3ccccc3CC2)cc1	i	0.85	-0.8	98	·	·	-1
CCCCC1NC(C(=O)O)CS1 (configuration not stated)	·	·	-1.7	93	·	·	-5
COC(=O)C(CC(C)C)NC(=O)c1ccc(F)cc1 (configuration not stated)	i	1.2	-2.0	102	-29	104	-8
